StopGo FLuc = lowers the firefly signal of an FMDV 2A StopGo reporter. HEK cells with a luciferase reporter of 2A StopGo recoding. Potency, µM (titrated, usually from 57.5 µM), without a hit: at the top dose signal change, negative = less light. hit rate 0.23% among 120,000. AID 1745856; active = well fitted falling curve with a large enough effect; inconclusive = small, poorly fitted or top-dose-only effect; inactive = no such curve, though single readings can be large or run the other way; further: nearly all actives have a fitted effect of over 60% in size; overnight with compound
StopGo RLuc = lowers the Renilla signal of an FMDV 2A StopGo reporter | Potency, µM (highest dose often 57.5 µM), for inactives: at the top dose signal change, negative = less light | HEK cells with a luciferase reporter of 2A StopGo recoding | hit rate 0.32% among 120,000; active means well fitted falling curve with a large enough effect; inconclusive means small, poorly fitted or top-dose-only effect; inactive means no such curve, though single readings can be large or run the other way; further: nearly all actives have a fitted effect of over 55% in size; overnight with compound
Numbers without * were called inactive; u = inconclusive; & = joins results of further samples; [ ] = dose if it differs, or a comment. On the % scale 0 is the no-effect control and ±100 the full control effect; potency means the concentration at half of the fitted maximal effect.

Molecule	StopGo FLuc	StopGo RLuc
Cc1cc(Cl)ccc1NC(=O)CN(c1ccccc1Br)S(C)(=O)=O	22.3%	27.7%
O=C(CCOc1ccccc1Cl)N1CCC(c2nnc3n2CCC3)CC1	7.7%	-6.4%
O=C(C1COc2cc(S(=O)(=O)Nc3ccc(Cl)cc3)ccc2O1)N1CCCC1 (stereo not given)	u	105.5%[activator]
Fc1ccc(C(NCCc2ccc(Cl)cc2)c2nnc(-c3ccccc3Cl)o2)cc1 (stereo not given)	-10.2%	127.9%[activator]
COc1ccc(CNC(=O)Cn2ncn3nc(-c4cccs4)cc3c2=O)cc1	-6.7%	-5.3%
Cc1ccc(CNC(=O)c2c(-c3ccc(F)cc3F)noc2C)o1	7.3%	-6.5%
CCC1CN(C(=O)Nc2ccc(C(=O)O)cc2)c2cc(Cl)ccc2O1 (stereo not given)	23.3%	3.7%
Cc1noc2nc(-c3ccccc3F)cc(C(=O)NCc3ccccc3F)c12	15.7%	6.9%
Cc1ccc2c(=O)cc(C(=O)Nc3nnc(CC(C)C)s3)oc2c1C	1.4%&-8.5%	4.0%&-0.9%
COc1ccc(C2c3c(-c4ccccc4O)n[nH]c3C(=O)N2CCc2ccccc2)cc1 (stereo not given)	-9.0%	-4.8%
Cc1c(C(=O)N2CCC(C(=O)Nc3ccc(F)cc3)CC2)sc2nc[nH]c(=O)c12	-8.2%	-7.6%
CCOc1ccc(NC(=O)C(CC)n2c(=O)c(-c3ccccc3NC(C)=O)nc3ccccc32)cc1 (stereo not given)	-10.2%	-6.1%
Cc1cc(C(=O)Nc2cccc(I)c2)c(C)o1	42.3%[activator]	2.9%
CN(Cc1cccnc1)C(=O)c1nccnc1N	7.7%	-9.3%
COc1ccccc1/C=C/C(=O)c1cc(F)ccc1OC(=O)c1ccccc1	0.0%	61.8%[activator]
CC(Sc1nnc(C2CC2)n1C)C(=O)Nc1ccnn1C(C)C (stereo not given)	-7.8%	13.8%
COc1cccc(-c2nc3c(C#N)c[nH]n3c2NC2CCCC2)c1OC	5.1%	7.5%
Cc1cccc(CN2CCN(CC(=O)NCc3ccc(Cl)cc3)C2=O)c1	-15.8%	8.6%
Cc1ccc(NC(=O)N2CCc3cc(S(=O)(=O)N4CCC(C)CC4)ccc32)cc1C	0.0%	15.6%
O=C(COc1ncnc2ccc(Br)cc12)Nc1ccc(F)cc1	-3.0%	-5.0%
Cc1cc(C(=O)OCC(=O)NC2(C#N)CCCCC2)c2ccccc2n1	5.1%	-5.8%
CCC(C)NC(=O)c1ccccc1NS(=O)(=O)c1ccc(F)c(C(=O)O)c1 (stereo not given)	2.3%	3.0%
O=C(NCC(O)COc1cccc(C(F)(F)F)c1)C1CCC1 (stereo not given)	5.7%	7.9%
Cc1cccc(C(=O)NCc2nnc(SCC(=O)NC(C)(C)C)n2-c2ccccc2)c1	-13.5%	-8.6%
O=C(C1CCCC1)N(Cc1ccc2cc[nH]c2c1)C1CC1	-1.4%	7.9%
CCCNc1c(NC(=O)Nc2cc(OC)cc(OC)c2)c(=O)oc2ccccc12	4.7%	2.0%
CCCNS(=O)(=O)c1cccc2cc(C)cnc12	7.0%	71.6%[activator]
c1ccc(CCNC2(c3nnnn3-c3ccccc3)CCCCC2)cc1	-2.1%	117.0%[activator]
CCOC(=O)c1oc2ccc(S(=O)(=O)n3nc(-c4cc(OC)c(OC)c(OC)c4)cc3N)cc2c1C	32.3%[activator]	16.3%
O=C1CN(C(=O)COc2ccc(Cl)cc2Cl)C(c2ccc(F)cc2)c2cc(F)ccc2N1 (stereo not given)	-3.2%	-13.9%
COc1ccccc1NC(=O)/C(C#N)=C/c1coc2ccc(C)cc2c1=O	-4.4%	0.0%
Cc1ccc(N2CC(NC(=O)c3ccccc3Br)CC2=O)cc1 (stereo not given)	-19.6%	3.3%
O=C(Nc1ccc(F)cc1)C1CC2CCCC(C1)C2=O (stereo not given)	21.0%	1.7%
Cc1ccc(-c2nnc3c4ccccc4c(C)nn23)cc1NC(=O)c1ccccc1Cl	35.0%[activator]	4.5%
CC(=O)N1CCc2nc3sc(C(=O)c4ccc(F)cc4)c(N)c3c(C(F)(F)F)c2C1	u	-0.3%
O=C(COC(=O)c1n[nH]c(=O)c2ccccc12)Nc1ccccc1	6.6%	2.5%
COc1ccc(Cc2nnc(Nc3cccc(C)c3)[nH]c2=O)cc1OC	71.1%[activator]	53.4%[activator]
Cc1ccc(NC(=O)c2ccco2)c(OCc2cc(=O)n3cc(C)sc3n2)c1	-5.2%	-6.2%
CN(C(=O)Cc1cccc(C(F)(F)F)c1)c1nc2ccccc2o1	1.8%	-3.0%
Cc1ccc(N(Cc2cccs2)C(=O)COc2cccc(C)c2)cc1	-8.0%	5.0%

Whole records from above:
O=C(COC(=O)c1n[nH]c(=O)c2ccccc12)Nc1ccccc1 in the list: StopGo FLuc = 6.6%; StopGo RLuc = 2.5%
Cc1ccc(NC(=O)c2ccco2)c(OCc2cc(=O)n3cc(C)sc3n2)c1 in the list: StopGo FLuc = -5.2%; StopGo RLuc = -6.2%

(list continues)
Molecule	StopGo FLuc	StopGo RLuc
Cc1cnc(NC(=O)CNC(=O)c2ccoc2)s1	0.0%	0.6%
CC1CCc2c(sc3nc(-c4cc5cc(Br)ccc5oc4=O)[nH]c(=O)c23)C1 (stereo not given)	-17.4%	-17.9%
CCOC(=O)c1ccc(NC(=O)c2c(NC(C)=O)sc3c2CCC(C)C3)cc1 (stereo not given)	-13.0%	-16.2%
Cc1ccc2c(CN3CCN(C(=O)c4ccc(Br)cc4)CC3)cc(=O)oc2c1	-12.0%	-15.7%
Cc1ccc2c(c1)N(CC(=O)NCc1cccc(Cl)c1)C(=O)c1cccnc1O2	13.5%	-0.8%
CCCn1c(=N)c(C(=O)NC2CCCC2)cc2c(=O)n3cccc(C)c3nc21	-15.5%	-8.4%
CN(CCOc1ccc(F)cc1)C(=O)c1cnc2ccccc2n1	143.8%[activator]	11.9%
COCC(C)n1c(C)cc(C(=O)CSc2nnc(-c3ccncc3)n2-c2ccccc2)c1C (stereo not given)	-15.9%	-10.8%
CCOc1ccc(-c2[nH]nc3c2C(c2cc(OC)c(OC)cc2Br)C(C#N)=C(N)O3)cc1 (stereo not given)	95.9%[activator]	32.8%[activator]
Cc1ccc(C(=O)NC(C)C2CCCO2)cc1 (stereo not given)	0.0%	2.8%
CCC(=O)N1CCc2cc(CNC(=O)Nc3ccccc3Cl)ccc21	47.1%[activator]	51.7%[activator]
CCCCCCCC/C=C\CCCCCCCC(=O)NCc1ccc(O)c(OC)c1	6.2%[11.5 µM]	0.8%
CC1=C(C(N)=O)C(c2ccccc2Cl)n2nc(-c3ccc(O)cc3)nc2N1 (stereo not given)	-1.0%	-2.4%
COc1ccc(OC)c(NC(=O)CC2CC3CCC2C3)c1 (stereo not given)	0.0%	-9.8%[1.06 µM]
CC(Oc1ccccc1)C(=O)Nc1ccc(C(=O)OCc2cc(=O)n3ccsc3n2)cc1 (stereo not given)	0.0%	92.0%[activator]
CCOc1ccc(NC(=O)c2cc(=O)c3ccc(C)c(C)c3o2)cc1	-13.4%&-12.1%	-20.6%&-6.9%
CCC1CCCCN1C(=O)CCl (stereo not given)	26.8%	-11.7%[1.06 µM]
CCCC(=O)Nc1ccc2c(c1)nc1n2CCSC1	40.1%[activator]	0.8%
Cc1ccccc1-c1nc(C#N)c(NCC(C)C)o1	70.9%[activator]	0.0%
CC(=O)Oc1c2ccccc2c(OC(C)=O)c2ccccc12	10.6%	-4.4%
CCCCN1C(SCC(=O)Nc2cccc(C(C)=O)c2)=NS(=O)(=O)c2ccccc21	2.3%	1.3%
COc1cccc(CNC(=O)c2nn(C)c3c2CSc2ccccc2-3)c1	-21.4%	51.8%[activator]
CCOC(=O)c1cccc(NS(=O)(=O)c2c(C)nc3sc(C)cn3c2=O)c1	-20.2%	0.0%
CCCCNC(=O)CSc1nc(-c2ccc(OC)cc2)cc(C(F)(F)F)n1	-19.9%	-13.9%
COc1ccc(-n2nc(C(=O)Nc3cccc(C)n3)c3c4ccccc4n(C)c3c2=O)cc1Cl	8.3%	4.0%
CCc1cccc2c(C(=O)C(Nc3cccc(CO)c3)c3ccccc3)c[nH]c12 (stereo not given)	21.4%	29.0%
O=C(N/N=C/c1ccc(Br)cc1)c1cccc(N/N=C/c2ccc(Br)cc2)c1	0.0%	18.4%
O=C(NCC(=O)N1CCCC1c1ccccc1)c1ccc(F)cc1 (stereo not given)	5.9%	5.9%
Cc1ccc(COC(=O)c2cc(=O)c3ccccc3o2)cc1	1.4%	-3.8%
Cc1ccc(-n2c(SCC(=O)N3CCC(C)CC3)nc3c([nH]c4ccccc43)c2=O)cc1	34.1%[activator]	-18.1%
N#Cc1c(NC(=O)CSc2nc3ccc(Cl)cc3[nH]2)sc2c1CCC2	-18.2%	-9.5%
Cc1oc(-c2ccccc2F)nc1Cn1c(SCc2cccc(Cl)c2)nc2ccncc21	0.0%	-5.7%
Oc1ccc(/C=C/c2nc3c(ccc4ccccc43)s2)cc1	234.5%[activator]	17.3%
COc1ccc(-c2onc(C)c2C)cc1S(=O)(=O)N1CCc2ccccc21	u	-12.5%
COc1cccc(CNC(=O)C2CCC(CNS(=O)(=O)c3cccs3)CC2)c1 (stereo not given)	-4.7%	8.5%
COc1ccc(Cl)cc1NC(=O)c1nc(S(C)(=O)=O)ncc1N(Cc1ccc(C)cc1)Cc1ccco1	-15.4%	-9.0%
CCOc1ccc(CCNC(=O)C2CCCN(S(=O)(=O)N(C)c3ccc(F)cc3)C2)cc1 (stereo not given)	u	u
O=C(/C=C/c1cccc2ccccc12)NC1CCCC1	0.0%	29.0%
COc1cccc(C2=NS(=O)(=O)N(C)C(C(=O)Nc3ccccc3SC)=C2)c1	9.7%	44.1%[activator]
CCCCCCCCC(=O)Nc1c(C)cccc1CC	-2.9%	-1.4%
COc1ccccc1-c1cc2nc(C)c(CCC(=O)NCCc3ccc(SC)cc3)c(C)n2n1	u	-7.4%
COC(=O)c1ccoc1COC(=O)CCc1ccc(-c2ccccc2)o1	27.8%	-7.5%
CN(C(=O)CCc1ccco1)C1CCCC1	0.0%	3.8%
Cc1ccc(NC(=O)CSc2nc(=O)n(CCN3CCOCC3)c3c2CCC3)c(C)c1	-17.1%	-4.6%
O=C(c1cncc(Br)c1)n1ccccc1=NC1CCCCC1	-6.9%	27.2%
O=C(CCN1C(=O)NC2(CCCCC2)C1=O)Nc1cccc2cccnc12	6.4%	-7.4%
CCNC(=O)C/C(C)=N/NC(=O)C(C)C	24.1%	9.0%
COc1cc(C2Nc3ccc(C)cc3[C@H]3OCCC[C@@H]23)cc(Cl)c1O (stereo not given in full)	-7.7%	-0.1%
Cn1c(=O)c2c(nc(N3CCOCC3)n2Cc2ccc(Br)cc2)n(C)c1=O	-11.5%	-10.0%
Cc1ccc([N+](=O)[O-])cc1S(=O)(=O)N1CCn2cccc2C1c1ccc(F)c(F)c1 (stereo not given)	-13.8%	37.2%[activator]

(more compounds)
Molecule	StopGo FLuc	StopGo RLuc
CNC(=O)c1ccc(/C=C/C(=O)C(C#N)c2ccccn2)cc1 (stereo not given)	1.2%	-9.5%
O=C(NCC(O)COc1ccc(C(F)(F)F)cc1)C1CCCC1 (stereo not given)	6.7%	6.4%
O=C1NC(c2ccccc2)Nc2sc3c(c21)CCN(Cc1ccccc1)C3 (stereo not given)	47.3%[activator]	-1.9%
Cc1ccc(NC(=O)c2oc3ccc(S(=O)(=O)N(C)C4CCCCC4)cc3c2C)c(C)c1	-8.1%	-8.0%
Cc1ccc(Oc2ccc(NC(=O)C3CCCCC3)cc2)cc1	23.1%	23.4%
Clc1cccc(-n2ncc3c(NC4CCCC4)ncnc32)c1	192.5%[activator]	-4.6%
CC(C(=O)Nc1ccc(F)cc1)N1CCN(C(=O)c2cccs2)CC1 (stereo not given)	-6.1%	-14.3%
Cn1nc(C(=O)NC(CC(=O)O)c2ccccc2)c2ccccc2c1=O (stereo not given)	-6.0%	-10.7%
COc1ccc2c(C)c(CC(=O)Nc3ccc4c(c3)OCO4)c(=O)oc2c1	38.1%[activator]	126.3%[activator]
O=c1[nH]cnc2scc(-c3ccc(Cl)cc3)c12	0.0%	15.4%
Cc1ccc(C(=O)N2CC(=O)Nc3ccc(Br)cc3C2c2ccc(F)cc2)cc1C (stereo not given)	-26.3%	25.6%

Among those listed so far, three contain a COOH group.
Molecule	StopGo FLuc	StopGo RLuc
CCC1CN(C(=O)Nc2ccc(C(=O)O)cc2)c2cc(Cl)ccc2O1 (stereo not given)	23.3%	3.7%
CCC(C)NC(=O)c1ccccc1NS(=O)(=O)c1ccc(F)c(C(=O)O)c1 (stereo not given)	2.3%	3.0%
Cn1nc(C(=O)NC(CC(=O)O)c2ccccc2)c2ccccc2c1=O (stereo not given)	-6.0%	-10.7%

Source: PubChem BioAssay (National Center for Advancing Translational Sciences (NCATS))

Only part of the results is shown; rates above refer to the full screens.
